A488 autofl = qHTS Assay for Spectroscopic Profiling in A488 Spectral Region; max dye equivalency, M; actives 0.1% (n = 59,000); compound autofluorescence, A488 spectral region, dye equivalency; hits give high values; active = above 10 nM dye equivalent; inconclusive = 1 to 10 nM; inactive = 1 nM or less; about half of its hits are not listed in these tables;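 further: highest value over a series up to 38 µM; compound alone in buffer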
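Read-out: relative fluorescence at 480/540 nm, expressed as Alexa 488 dye-equivalent concentration from a six-point A488 standard included per plate. Conditions: 100 mM Tris, pH 8.0; 15 min incubation, room temperature.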
TSHR ag = qHTS Assay for Agonists of the Thyroid Stimulating Hormone Receptor | Thyrotropin receptor (Homo sapiens), P16473 | HEK293-CNG-TSHR cells (CNG channel as cAMP sensor), membrane potential dye, cAMP | Potency, µM (top dose mostly 57.1 µM), inactives show at the top dose activation, actives largely listed as activators | actives 0.48% (n = 73,000); active = well fitted activation curve of enough size with the parental cells flat; inconclusive = any curve in the parental cells; inactive = parental cells flat and receptor cells flat or falling; further: potency means the concentration at half of the fitted maximal effect; % of control where 0% means no effect; weak receptor curves with flat parental cells got no call and are not listed
Target sequence (P16473 whole entry, looked up): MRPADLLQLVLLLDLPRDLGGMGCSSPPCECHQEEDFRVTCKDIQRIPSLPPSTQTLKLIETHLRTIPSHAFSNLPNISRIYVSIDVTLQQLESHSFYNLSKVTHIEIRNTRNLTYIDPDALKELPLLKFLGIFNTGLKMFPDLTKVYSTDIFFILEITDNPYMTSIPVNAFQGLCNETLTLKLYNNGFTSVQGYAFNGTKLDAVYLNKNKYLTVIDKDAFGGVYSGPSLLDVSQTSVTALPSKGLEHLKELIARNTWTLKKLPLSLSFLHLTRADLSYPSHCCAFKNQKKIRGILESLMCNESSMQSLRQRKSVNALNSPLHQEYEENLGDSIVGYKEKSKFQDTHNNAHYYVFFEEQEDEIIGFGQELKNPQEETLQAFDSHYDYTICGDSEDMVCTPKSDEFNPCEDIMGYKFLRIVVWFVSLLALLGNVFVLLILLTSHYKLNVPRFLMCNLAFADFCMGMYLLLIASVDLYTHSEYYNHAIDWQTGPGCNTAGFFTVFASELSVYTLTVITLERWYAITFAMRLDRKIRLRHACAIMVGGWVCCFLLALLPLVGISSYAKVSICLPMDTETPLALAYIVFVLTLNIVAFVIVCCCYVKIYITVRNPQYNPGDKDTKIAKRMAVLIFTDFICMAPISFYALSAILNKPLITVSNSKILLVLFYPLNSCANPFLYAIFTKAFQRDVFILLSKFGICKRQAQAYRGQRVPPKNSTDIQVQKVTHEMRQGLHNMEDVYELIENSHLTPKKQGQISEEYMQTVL
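HEK 293 cells stably expressing TSHR and a modified CNG channel, with CNG-only parental cells as counterscreen, were preloaded 60 min at room temperature with membrane potential dye containing 100 uM RO 20-1724. Compound exposure was 30 min, and depolarization was read as fluorescence at 590 nm.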
AID923 = qHTS Assay for Allosteric/Competitive Inhibitors of Caspase-1: Spectroscopic Profiling in AFC Spectral Region; compound fluorescence, AFC spectral region (405/520 nm); almost no hit is shown here; Potency, µM (titrated, usually from 57.5 µM), for inactives: top-dose fluorescence increase, hits mostly activators; actives 1.1% (n = 75,000); active means well fitted activation curve with a large enough effect; inconclusive means small, poorly fitted or top-dose-only effect;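 further: potency means the concentration at half of the fitted maximal effect; 0% is about no effect; scaled to a free AFC standard on each plate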
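Titrations up to 57 uM read every 20 sec for 3 min (405/520 nm) with 50 nM caspase 1 and 5 uM Ac-WEHD-AFC, pH 7.5 HEPES buffer. Fluorescence-vs-time intercept gave baseline, scaled against on-plate AFC standard.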
Resorufin autofl = qHTS Assay for Spectroscopic Profiling in Resorufin Spectral Region; Compound fluorescence, resorufin region 547/598 nm, buffer; hits give high values; max dye-equivalent concentration, M; actives 0.04% (n = 59,000); active = above 10 nM dye equivalent; inconclusive = 1 to 10 nM; inactive = 1 nM or less; a few of its hits are not listed in these tables; further: highest value over a series up to 38 µM
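Intrinsic fluorescence profiled in the resorufin window (ex 547 nm, em 598 nm) after 15 min at room temperature in pH 8.0 Tris buffer (100 mM); responses normalized against a six-point resorufin standard series as dye-equivalent concentration.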
A647 fluor = qHTS Assay for Spectroscopic Profiling in A647 Spectral Region; AID 592, 2007; max dye-equivalent concentration, M; Compound fluorescence, A647 channel (570/671 nm), Tris buffer; 59,000 tested, under 10 active; active means above 1 µM dye equivalent; inconclusive means 0.1 to 1 µM; inactive means 0.1 µM or less;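 further: values scaled relative to a standard on each plate; highest value over a series up to 38 µM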
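Buffer was dispensed, compounds and Alexa 647 standards were pin-transferred, and plates sat 15 min at room temperature. Intensity at 570/671 nm was then converted to dye-equivalent concentration using the plate's A647 standard curve.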
* hit, by the source's call; i = inactive; ? = inconclusive; · = no result given; & = joins results of further samples; [ ] = another dose, or the depositor's remark.

smiles	A488 autofl	TSHR ag	AID923	Resorufin autofl	A647 fluor
CC(C)(O)C#Cc1ccc(C(=O)N2CCCC2C(=O)O)s1 (stereo not drawn)	i	3%	-0.7%	i	3.3e-08
O=C(Nc1ccccc1)N1CCCCC1c1cccnc1 (stereo not drawn)	i	31%	-0.2%	i	1.3e-09
CCCCN(C(=O)Cn1nnc2ccccc21)C(C(=O)NCCOC)c1ccc(OC)cc1 (stereo not drawn)	i	-1%	-1.5%	i	1.4e-09
COc1cc(NC(=O)c2c(F)c(F)c(F)c(F)c2F)c(OC)cc1Cl	i	23%	0.4%	i	1e-09
CC1Oc2ccccc2N(Cc2ccccc2Cl)C1=O (stereo not drawn)	i	?	1.7%	i	1e-09
CC1CC(C)CN(C(=O)Cn2c(=O)n(CCCCC(=O)NCc3ccco3)c(=O)c3ccccc32)C1 (stereo not drawn)	i	4%	0.7%	i	1e-09
CCOc1ccc(-c2nnn(CC(=O)NCc3ccc(F)cc3)n2)cc1OCC	i	?	1.1%	i	4.4e-08
CC1(C)S[C@@H]2[C@H](NC(=O)C3(N)CCCCC3)C(=O)N2[C@@H]1C(=O)O	i	-6%[11.4 µM]	4.6%[11.5 µM]	i	1e-09
CC1CC(C)CN(C(=O)COC(=O)c2cc3ccccc3cc2O)C1 (stereo not drawn)	i	?	0.4%	i	1e-08
COc1cccc2c(=O)c(C/C=C(/C)Cl)c(C)[nH]c12	·	4%	2.8%	·	·

(list continues)
smiles	A488 autofl	TSHR ag	AID923	Resorufin autofl	A647 fluor
c1coc(CN2CN=C(Nc3nc4ccccc4s3)NC2)c1	i	14%	1.2%	i	7.2e-09
O=C1C2C3C=CC(C3)C2C(=O)N1CNc1ccccc1 (stereo not drawn)	·	-1%[11.4 µM]	-0.3%	·	·
COc1ccc(Cc2nc(-c3ccccc3)no2)cc1	i	2%	-1.4%	i	1.6e-09
CCOC(=O)Cc1c(C)nc2c(C#N)c(C)nn2c1C	i	11%	1.5%	i	1e-09
CCOc1cc(NC(=O)C2CCCO2)c(OCC)cc1NC(C)=O (stereo not drawn)	i	-8%	-4.0%	i	1e-09
COC(=O)c1ccc(C(NC(=O)OCc2ccccc2)/C(F)=C/[C@@H](C)C(=O)NC2CCCCC2)cc1 (stereo partly drawn)	·	?	3.0%	·	·
CN(c1ccccc1)C(c1ccc(F)cc1)c1nnnn1C1CCCC1 (stereo not drawn)	i	?	2.7%	i	2.4e-09
Nc1cc(C(=O)O)ccc1Nc1ccccc1	·	3%[11.4 µM]	3.8%	·	·
Oc1ccc(-c2nc3ccccn3c2NCc2ccc3c(c2)OCO3)cc1	i	?	6.6%	i	9.4e-09
COc1ccc(-c2oc(/N=C/N3CCOCC3)c(C#N)c2-c2ccc(OC)cc2)cc1	·	-14%	2.6%	·	·

Further records:
smiles	A488 autofl	TSHR ag	AID923	Resorufin autofl	A647 fluor
COc1ccc(C)cc1NC(=O)CSc1nnc(-c2ccc(Br)cc2)o1	i	?	0.3%	i	1e-09
COC(=O)c1ccc(C)c(NC(=O)CN(c2cc(OC)ccc2OC)S(C)(=O)=O)c1	·	10%	0.6%	·	·
Cc1cccc(N2CCN(S(C)(=O)=O)CC2)c1C	·	2%	2.7%	·	·
CCOc1cccc(NC(=O)CSc2nncn2N)c1	i	0%	1.7%	i	3.6e-08
CN(C)S(=O)(=O)c1ccc(NC(=O)C2COc3ccccc3O2)cc1 (stereo not drawn)	·	-2%	-0.4%	·	·
CCn1c(CNC(=O)c2ccccc2)nc2ccccc21	i	-2%	-1.6%	i	3.7e-08
CCOc1c(OC)cc(C2C(C#N)=C(N)Oc3n[nH]c(-c4ccncc4)c32)cc1OC (stereo not drawn)	i	0%	0.4%	i	2.7e-09
CCC12CN3CC(CC)(CN(C1)C31C(=O)N(C)c3ccc(C)cc31)C2=O (stereo not drawn)	i	?	1.1%	i	1.8e-09
COc1ccc(C(=O)c2ccc(OC)c(OC)c2)cc1OC	i	?	1.9%	i	2.7e-08
COc1cccc(OCc2nnc(SCC(=O)NCc3ccco3)n2CCc2ccccc2)c1	i	?	3.2%	i	8.9e-09

Sorted by the number under AID923 (low to high): 5 of the compounds above
compound	A488 autofl	AID923	A647 fluor
COc1ccc(Cc2nc(-c3ccccc3)no2)cc1	i	-1.4%	1.6e-09
COC(=O)c1ccc(C)c(NC(=O)CN(c2cc(OC)ccc2OC)S(C)(=O)=O)c1	·	0.6%	·
c1coc(CN2CN=C(Nc3nc4ccccc4s3)NC2)c1	i	1.2%	7.2e-09
CCOC(=O)Cc1c(C)nc2c(C#N)c(C)nn2c1C	i	1.5%	1e-09
COc1cccc(OCc2nnc(SCC(=O)NCc3ccco3)n2CCc2ccccc2)c1	i	3.2%	8.9e-09

Following part:
smiles	A488 autofl	TSHR ag	AID923	Resorufin autofl	A647 fluor
COc1ccc(CCNC(=O)C2CCCN(S(C)(=O)=O)C2)cc1OC (stereo not drawn)	i	10%	1.9%	i	8.1e-09
Cc1c(C(=O)N2CCCCC2)sc(NC(=O)C(C)C)c1C#N	i	1%	-0.1%	i	4.4e-08
COC(=O)CSC1=C(C#N)C(c2ccccc2OC)C(C(=O)OC)C(=O)N1 (stereo not drawn)	·	-3%[11.4 µM]	-0.5%	·	·
CNC(=O)C1C2C=CC3(O2)C1C(=O)N(C1CC1)C3C(=O)NCc1ccc(OC)cc1 (stereo not drawn)	i	0%	0.2%	i	4e-08
COCC#Cc1ccc(C2NC(C(=O)O)CCC2C)cc1 (stereo not drawn)	·	-5%[11.4 µM]	1.1%[11.5 µM]	·	·
Cc1cccc(C)c1OC[C@H](C)N	i	-3%[25.6 µM]	2.7%[25.7 µM]	i	5.6e-09&3.9e-09
CCOc1ccc(N2CC(C(=O)Nc3cccc(C)c3C)CC2=O)cc1 (stereo not drawn)	i	0%	0.4%	i	2e-08
O=C(O)c1ccc(F)c(S(=O)(=O)Nc2ccccc2)c1	·	-4%	-2.1%	·	·
COc1ccc(C2c3c(oc4ccc(F)cc4c3=O)C(=O)N2CCN2CCOCC2)cc1OC (stereo not drawn)	·	10%	1.6%	·	·
CC(=O)N1c2ccc(S(=O)(=O)CCC(=O)O)cc2CC1C (stereo not drawn)	i	1%	-0.4%	i	1e-09

(next part)
smiles	A488 autofl	TSHR ag	AID923	Resorufin autofl	A647 fluor
CO[C@H]1COC(=O)C/C=C\[C@H](C)[C@@H](NS(=O)(=O)c2ccc(C)cc2)COC(=O)CCC[C@@H]1C	·	13%[11.4 µM]	1.3%[11.5 µM]	·	·
Cc1nn(Cc2ccc(F)cc2)c(C)c1NC(=O)c1cc(-c2ccc3c(c2)OCO3)on1	i	9%	2.1%	i	2.1e-09
Cc1ccc(S(=O)(=O)NC2=NCN(C3CCN(Cc4ccccc4)CC3)CN2)cc1	i	-2%[11.4 µM]	-0.9%	i	7.8e-09
Cc1ccc(N(CN2CCCC2=O)C(=O)c2ccc(OC(C)C)cc2)cc1	i	10%	2.8%	i	4.2e-08
O=C(CN1CCC(Cc2ccccc2)CC1)NC(=O)NCc1ccco1	i	0%	2.5%	i	1.2e-08
COCCCn1c(SCC(=O)OC2CCCCC2)nnc1-c1cccs1	i	?	-0.7%	i	1.6e-09
Cc1cccc(C)c1N1C(=O)CC(N(O)c2ccccc2)C1=O (stereo not drawn)	i	0%	0.4%	i	3.9e-09
Cc1cc(OCC(=O)c2ccc(F)cc2)ccc1N1C(=O)CCC1=O	i	-5%	-0.7%	i	1.8e-09
Cc1ccc(/C=c2\sc3nc(-c4ccccc4Br)nn3c2=O)o1	i	24%	1.2%	i	1e-09
C=CCNC(=O)C(C#N)c1nc2ccccc2nc1N1CCCCCC1 (stereo not drawn)	i	·	·	i	1e-09

Additional records.
smiles	A488 autofl	TSHR ag	AID923	Resorufin autofl	A647 fluor
CC1(C)N=C(/C=N/O)CN1O	i	-4%	-0.9%	i	9.3e-09
CC(=O)Nc1cccc2c1OCCO2	i	-2%	6.0%	i	7.4e-09
CC(C)(/C=N/O)/[N+]([O-])=C/c1ccccc1C(F)(F)F	i	0%	-1.6%	i	3.3e-08
CCN(CC)CCCn1c(-c2ccccc2)nc2c(NCc3ccccc3)nc(C)nc21	·	?	2.6%	·	·
O=C1CC(c2c[nH]c3ccccc23)C(=O)N1 (stereo not drawn)	i	-2%	2.8%	i	1.3e-09
C[C@@H]1CN(CCCn2c3ccccc3c3ccccc32)C[C@H](C)N1	·	?	-1.5%	·	·
O=C(CN(Cc1ccc2c(c1)OCO2)C(=O)CNC(=O)c1ccco1)NC1CCCCC1	i	8%	0.0%	i	3.2e-08
O=C(CCCN1C(=O)CSc2ncccc21)N1CCN(c2cccc(C(F)(F)F)c2)CC1	i	?	0.0%	i	6.4e-09
CCOc1ccc(Cn2nnc(C(=O)NCc3ccc(OC)cc3)c2N)cc1	·	8%	-0.7%	·	·
CCS(=O)(=O)Nc1c(C(=O)OC)[nH]c2ccccc12	i	2%	-0.5%	i	1e-09

Other entries follow.
smiles	A488 autofl	TSHR ag	AID923	Resorufin autofl	A647 fluor
CCOC(=O)N1CCC(NC(=O)CCS(=O)(=O)c2ccc3c(c2)CCN3C(=O)CC)CC1	i	0%	-0.2%	i	1e-09
Cn1c(-c2ccccc2)cccc1=O	i	-3%[11.4 µM]	0.0%	i	3.2e-09
O=C(CN1CCN(S(=O)(=O)c2ccc(Br)cc2)CC1)Nc1ccccc1F	·	?	-1.1%	·	·
CCn1cc(C(=O)OCc2ccccc2)c(=O)c2ccc(C)nc21	i	·	0.5%	i	2e-08
CC(=O)Nc1ccc(S(=O)(=O)N2CCSCC2)cc1	·	3%	3.2%	·	·
CCCOc1ccc(C(=O)NCc2cccnc2)cc1	i	?	-0.6%	i	1e-09
O=C(c1csnn1)N1CCC2(CC1)CN(C(c1ccccc1)c1ccccc1)C2	i	0%	1.7%	i	1.2e-09
Cc1cc(C(=O)N2CCN(CCc3ccccc3)CC2)no1	i	-1%	-2.9%	i	7.3e-09
CCOC(=O)N1CCN(C(=O)c2ccc3c(=O)n(-c4ccc(OC)cc4)c(=S)[nH]c3c2)CC1	i	1%	-0.2%	i	1e-08
C/C(Cl)=C/Cn1c(SCCN2CCOCC2)nc2c1c(=O)[nH]c(=O)n2C	i	-21%	1.8%	i	2.6e-08

(listing goes on)
smiles	A488 autofl	TSHR ag	AID923	Resorufin autofl	A647 fluor
O=C1OCCN1CCN(CN1C(=O)CCC1=O)CN1C(=O)CCC1=O	i	9%	-1.0%	i	4.7e-08
CCOc1ccccc1N1CCN(C(=O)Nc2ccc(F)c(Cl)c2)CC1	i	-11%	0.3%	i	3.9e-08
O=c1c(-c2ccccc2)nc2cnc(Oc3ccccc3)nc2n1Cc1cccs1	i	1%	15%	i	2.6e-08
CCOC(=O)c1ccc(N2C(=O)CC(C(=O)OC)=C2C)cc1	i	7%	0.0%	i	1e-09
COCC(C)N=Cc1c(O)[nH]c2ccccc12 (stereo not drawn)	·	13%	0.7%	·	·
CCCCCCCCC	·	?	-0.2%	·	·
Cc1ccc(OCCC(=O)OCC(=O)N2c3ccccc3CC2C)cc1 (stereo not drawn)	i	·	-1.4%	i	1.7e-08
CC1CCCCN1C(=O)Cn1nnc(-c2cccnc2)n1 (stereo not drawn)	i	-3%	7.8%	i	6.7e-09
Cc1nc2c(C(=O)N3CCCCC3)cnn2c(C)c1Cc1ccccc1F	i	?	-1.3%	i	1.9e-08
Cc1cc2nn(-c3ccccc3)nc2cc1NC(=O)c1cccs1	i	17%	0.5%	i	1.8e-09
CCC(C)(C(=O)NC1CCCC1)N(C(=O)CNC(C)=O)c1ccc(C)cc1 (stereo not drawn)	i	2%	-1.6%	i	1e-09

Some of the compounds tested, so the mix of outcomes need not match the whole.
